# WNV protease inh = blocks West Nile virus NS2B-NS3 protease activity | P06935 | WNV NS2B-NS3 protease, fluorogenic substrate Ex360/Em465; hits give low values | z-score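 (tested at a level between 10 and 100 µM)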 | 65,000 compounds, 0.18% hits | AID 577;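 active = z-score at -3 or under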;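 also: score is relative to mean and spread of the compound wells of a plate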
# Target sequence (P06935 1371-1501 limits assumed): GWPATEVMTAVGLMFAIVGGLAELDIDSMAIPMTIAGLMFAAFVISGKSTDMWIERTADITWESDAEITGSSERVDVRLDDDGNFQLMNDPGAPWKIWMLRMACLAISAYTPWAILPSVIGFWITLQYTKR
# Target sequence (P06935 1502-1679 limits assumed): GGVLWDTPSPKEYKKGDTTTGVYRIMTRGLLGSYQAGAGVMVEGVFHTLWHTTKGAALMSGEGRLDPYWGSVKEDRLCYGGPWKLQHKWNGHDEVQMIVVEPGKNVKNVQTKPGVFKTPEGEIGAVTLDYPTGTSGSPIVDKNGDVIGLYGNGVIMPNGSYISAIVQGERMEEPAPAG
# * marks the source's active call; other numbers are inactive results; & = joins results of further samples. This is a subset. The share of hits here may be higher or lower than overall.
# Preview, two compounds:
SMILES,WNV protease inh
CCCOc1ccc(CCN2CCC(=O)NC2=O)cc1C,0.34
Cc1onc(-c2c(Cl)cccc2Cl)c1C(=O)Nc1ccc2c(c1)OCO2,-0.38

# The list itself, repeating the preview:
SMILES,WNV protease inh
CCCOc1ccc(CCN2CCC(=O)NC2=O)cc1C,0.34
Cc1onc(-c2c(Cl)cccc2Cl)c1C(=O)Nc1ccc2c(c1)OCO2,-0.38
CCOC(=O)CN1C(=O)C(O)(CC(=O)c2ccccn2)c2ccccc21 (stereo unspecified),0.65
O=C(CCN1CCc2ccccc2CC1)c1ccc2c(c1)OCCO2,0.1
COc1ccc(C2C(C(=O)OC3CCCCC3)=C(C)Nc3nnnn32)c(OC)c1OC (stereo unspecified),-0.1
Cc1ccc(NC(=O)CN(C)S(=O)(=O)c2cccs2)cc1F,1.5
CCCOc1ccccc1C(=O)N(Cc1ccco1)C1CCS(=O)(=O)C1 (stereo unspecified),-0.83
O=c1oc2cc(O)ccc2c2oc3cc(O)ccc3c12,1.6
N#Cc1c(-c2ccc(Cl)cc2Cl)nc2n(c1=O)CCS2,1.1
CCOC(=O)N1CCN(Cc2cn3ccccc3n2)CC1,-0.48
O=C(CCN1CCN(CCO)CC1)Nc1ccc(OCc2ccccc2)cc1,-0.73
COC(=O)c1ccc(CSc2nnc(CNC(=O)COc3ccc(Cl)cc3)o2)o1,-0.74
O=C(NCc1ccc2c(c1)OCO2)c1cc2n(n1)C(C(F)(F)F)CC(c1ccc3c(c1)OCO3)N2 (stereo unspecified),-0.35
Clc1ccccc1-c1nnn(Cc2ccc(-c3nn[nH]n3)cc2)n1,2.3
CC(NC(=O)C1CCCCC1)C(c1cccs1)N1CCN(C)CC1 (stereo unspecified),0.91
COc1cc(C(=O)O)cc(Br)c1OC1CCCC1,-0.04
COCC(C)NC(=O)CCS(=O)(=O)c1nc(-c2ccc(OC)cc2)cc(C(F)(F)F)n1 (stereo unspecified),-0.01
CCSc1nnc(Cc2cc(=O)[nH]c(=O)[nH]2)n1-c1cccc(C)c1,-1.2
CN1C(=O)c2ccccc2C(C(=O)NCC2CCCO2)C1c1c[nH]c2ccccc12 (stereo unspecified),0.76
Cc1ccc(CCNC(=O)C2CCN(S(=O)(=O)c3ccc4c(c3)CCC(=O)N4)CC2)cc1,0.17
COc1ccc(C(=O)NCc2nnc(SCC(=O)N3CCCCC3)o2)cc1OC,2.4
O=C(Nc1ccccc1)C1=C(N2CCOCC2)/C(=C/c2cccnc2)CC1,-1.1
COc1ccc(N(C)C(=O)Nc2ccc3c(c2)nnn3C)cc1,1.6
[O-]/[N+](=C/c1cccnc1)c1ccc(Br)cc1,-0.51
CCn1c2c(c3cc(Br)ccc31)CCC/C2=N\O,-0.55
CCOC(=O)c1nnn(CC(=O)Nc2ccccc2OC)c1C(=O)OCC,-1.7
O=C(CN1C(=O)CCC1=O)Nc1nc(-c2ccc(Cl)s2)cs1,-1.4
CCOc1ccc(S(=O)(=O)N2CCN(c3ccc(C)cc3C)CC2)cc1,-0.78
CC1SC(c2cccc(Cl)c2)NC1=O (stereo unspecified),0.57
COc1ccc(CNC(=O)C2C3C=CC4(CN(Cc5cccnc5)C(=O)C24)O3)cc1 (stereo unspecified),-0.12
CCCN1C(=O)C(NC(=O)c2ccncc2)(C(F)(F)F)C2=C1CC(C)(C)CC2=O (stereo unspecified),-0.6
O=C(c1scc2c1CCCC2)N1CCCCC1,1.9
CCn1c2ccccc2c2cc(Nc3cc(C)nc4ncnn34)ccc21,0.22
COc1ccccc1NC(=O)CCN1CCCCCC1,-0.53
CCOC(=O)c1ccccc1N1C(=O)CSC1=S,-0.34
Cc1cc2cc(CNC(=O)c3ccco3)ccc2n1C,-0.86
CCOC(=O)c1nnn(CC(=O)Nc2cc(F)ccc2F)c1C(=O)OCC,0.2
Nc1ccccc1C(=O)Nc1cccc(C(=O)O)c1,0.66
Cc1csc(C(C#N)C(=O)c2ccc(S(=O)(=O)N3CCCC3)cc2)n1 (stereo unspecified),-0.81
CC1CCN(Cc2nc3c(c(=O)n(C)c(=O)n3C)n2Cc2cccc3ccccc23)CC1,-0.71
CC(NC(=O)c1ccccc1O)c1ccccc1 (stereo unspecified),1.1
COc1ccc(-c2cn3c4c(sc3n2)CCCC4)cc1,-1.1
CC12CCC(C(=O)NCC3CCCO3)(OC1=O)C2(C)C (stereo unspecified),-0.82
O=C(NCCCN1CCCC1=O)c1cccc(C(F)(F)F)c1,-0.26
CN(CC(=O)N1CCc2ccccc21)S(=O)(=O)c1cccs1,0.15
Cc1ccc(Nc2nc(C3CC3)cs2)cc1,0.14
COc1cc(NS(=O)(=O)c2ccc(NC(=O)COc3ccccc3Cl)cc2)nc(OC)n1,0.64
Cc1cccc(N(CC(=O)NC2CCCC2)C(=O)CCCC(=O)Nc2ccccn2)c1,-0.32

# Given with tabs: three of the compounds above.
SMILES	WNV protease inh
Cc1ccc(Nc2nc(C3CC3)cs2)cc1	0.14
COc1cc(NS(=O)(=O)c2ccc(NC(=O)COc3ccccc3Cl)cc2)nc(OC)n1	0.64
Cc1cccc(N(CC(=O)NC2CCCC2)C(=O)CCCC(=O)Nc2ccccn2)c1	-0.32

# Following part.
SMILES,WNV protease inh
Cc1ccc(C)c(-n2c(CNC(=O)c3ccco3)nnc2SCC(=O)Nc2nnc(C)s2)c1,0.06
COc1cccc(-c2nc3n(n2)C(c2cccs2)C(C(=O)Nc2cccnc2)=C(C)N3)c1 (stereo unspecified),0.16
CCOC(=O)N1CCN(C(=O)CN2C(=O)CC(C)(C)S(=O)(=O)c3ccccc32)CC1,-2.6
O=C(On1c(-c2ccccc2)nc2ccccc2c1=O)c1ccco1,-0.55
CCCCCC1CC(CC(=O)O)C(=O)O1 (stereo unspecified),-1.1
Cc1ccc(C(C(=O)NC2CCCC2)N(Cc2cccs2)C(=O)CNC(=O)c2cccs2)o1 (stereo unspecified),-0.21
CCOC(=O)c1c(NC(=O)c2ccco2)sc(C(=O)N2CCCC2)c1C,-0.2
O=C(NCc1cccs1)c1cnc2sccn2c1=O,-0.4
Cc1c(C(=O)N2CCN(C)CC2)oc2c1C(=O)CC(C)(C)C2,-1.3
COc1cccc(S(=O)(=O)Nc2ccc3sc(C)nc3c2)c1,-0.14
O=C(Nc1ccncc1)C1CCCN(S(=O)(=O)c2cccc3cccnc23)C1 (stereo unspecified),-0.79
O=C(OCn1nnc2ccccc2c1=O)c1ccc(S(=O)(=O)N2CCOCC2)cc1,0.78
COc1cccc(/C=N/n2c(C)c3c(C)nnc(C)c3c2C)c1O,0.17
Cc1csc2nc(CCNS(=O)(=O)c3ccc4c(c3)OCCO4)cn12,0.69
CCCCC[C@H](O)/C=C/[C@H]1C=CC(=O)[C@@H]1C/C=C\CCCC(=O)O,-1.7
CCOC(=O)N1CCN(C(=O)c2ccc3c(c2)sc2nc(-c4ccc(OC)cc4)cn23)CC1,-0.43
O=C(Nc1ccc(Cl)cc1)Nc1ccccc1C(=O)NCc1ccco1,1.1
Cn1c(=O)c2sccc2n2c(CCCC(=O)NCc3ccc4c(c3)OCO4)nnc12,-0.66
CC(C)Sc1nc(O)c(Cc2ccccc2)c(=O)[nH]1,-0.85
COc1ccc(OCCSc2ncnc3nc[nH]c23)cc1,-1.9
COC(=O)CN1C(=O)C(O)(CC(=O)c2ccc(C)cc2)c2cc(Br)ccc21 (stereo unspecified),-0.71
CCn1c(SCC(=O)OC)nc2sc3c(c2c1=O)CCC3,-1
COc1cc(OC)c(C#N)c(S(=O)Cc2ccccc2)c1 (stereo unspecified),0.19
O=C(C1CCCN(Cc2cccnc2)C1)N1CCCCC1 (stereo unspecified),0.2
CCCCCn1c(SCc2cccc(C)c2)nc2c1c(=O)[nH]c(=O)n2C,-0.65
CCOc1ccc2[nH]c(=O)c(CN(CCO)C(=O)c3ccc(Br)cc3)cc2c1,-0.53
CN(C)c1nc2c(c(=O)n(C)c(=O)n2C)n1CC(=O)c1cccs1,-0.41
Cc1cc(C)cc(OCCCCCNCCO)c1,2.1
COc1ccc(F)cc1S(=O)(=O)Nc1ccc2c(c1)OCCO2,0.38
O=C(NCC1CCCO1)c1c(O)c2cccc3c2n(c1=O)CCC3 (stereo unspecified),-0.74
O=C(CC1CCCCC1)OCn1nnc2ccccc2c1=O,0.65
CC(=O)N1CCc2cc(S(=O)(=O)NCCCOC(C)C)ccc21,-0.81
CCC(=O)N1CCc2cc(S(=O)(=O)NCCCN3CCN(Cc4ccccc4)CC3)ccc21,-0.38
Cc1cc(NC(=O)CCC(=O)N(c2ccc(F)cc2)C(C(=O)NC2CCCC2)c2ccncc2)no1 (stereo unspecified),-1.1
CCOC(=O)CSc1nnc(CSc2nc(N)c3c(C)c(C)sc3n2)n1-c1ccccc1,0.65
C=CCNC(=O)C1CCCN(S(C)(=O)=O)C1 (stereo unspecified),-0.69
CC(=O)OC1c2ccccc2C(=O)N1Cc1ccccc1Cl (stereo unspecified),-0.5
COc1ccc(OC)c(S(=O)(=O)N2CCN(c3c(C)cccc3C)CC2)c1,-0.36
O=C(COc1ccc(Cl)cc1)NCc1nnc(SCC(=O)Nc2ccccc2)o1,1.5
COC(=O)c1nc(NC(=O)C(C)(C)C)n[nH]1,-0.09
CCOC(=O)C1=C(C)NC(=O)NC1c1ccc(F)cc1 (stereo unspecified),-0.6
CCOc1ccc(C(=O)Nc2cccc(-c3nc4cccnc4o3)c2)cc1Cl,-0.22
CCOC(=O)N1CCC(NC(=O)C2CCN(S(=O)(=O)c3cccs3)CC2)CC1,0.99
CCOC(=O)C1CCN(C(=O)Cn2cc(C(=O)C3CC3)c3ccccc32)CC1,1.2
Cc1ccccc1-n1nc2c(c1NC(=O)c1cccc(F)c1)CS(=O)C2 (stereo unspecified),1.3
CCOC(=O)N1CCN(C(=O)CSc2nnc(CNC(=O)c3ccccc3F)o2)CC1,0.19
COc1ccc(CCNC(=O)c2c(O)c3c([nH]c2=O)CCCC3)cc1,0.97
CN(CC(=O)N1CCc2ccccc21)S(=O)(=O)c1ccc(Br)s1,-0.95

# Part of the list above in order of SMILES length, smallest number first:
SMILES,WNV protease inh
CCn1c2c(c3cc(Br)ccc31)CCC/C2=N\O,-0.55
O=C(NCCCN1CCCC1=O)c1cccc(C(F)(F)F)c1,-0.26
Cn1c(=O)c2sccc2n2c(CCCC(=O)NCc3ccc4c(c3)OCO4)nnc12,-0.66

# Later entries
SMILES,WNV protease inh
O=C(NCCCN1CCOCC1)c1cc(-c2ccccc2)on1,0.66
Cc1nnc(SCC(=O)N2CC(=O)Nc3ccccc32)n1-c1ccccc1,0.47
COc1ccccc1NC(=O)CSc1nnc(CNC(=O)c2ccco2)o1,1.3
COc1ccc(OC)c(C(=O)C2COC(=O)C2)c1 (stereo unspecified),-1.1
O=C(Cn1cnc2c(oc3ccccc32)c1=O)NCC1CCCO1 (stereo unspecified),-0.59
CCCn1c(=O)c(C(=O)Nc2ccncc2)c(O)c2ccccc21,-0.55
CCOc1ccc2cc(S(=O)(=O)N3CCN(C)CC3)ccc2c1,-0.05
Cc1ccc(CNC(=O)C2CCCN(S(C)(=O)=O)C2)cc1 (stereo unspecified),0.04
C=CCn1c(NCc2ccc(N(C)C)cc2)nc2ccccc21,-0.99
CN(C(=O)COc1cc(=O)n(C)c2ccccc12)c1ccc(Br)cc1,-0.13
Cc1ccc(CNC(=O)CN2CCN(Cc3ccc(C)cc3)C2=O)cc1,0.17
CC(C)NCC(O)COc1cccc2[nH]ccc12 (stereo unspecified),0.28
CCOC(=O)CN1C(=O)SC(CC(=O)Nc2nccs2)C1=O (stereo unspecified),-0.64
COC(=O)c1ccccc1NC(=O)CSc1nnnn1-c1ccc(C)cc1C,-0.48
O=C(C1CCN(c2nnc(-n3cccc3)s2)CC1)N1CCc2ccccc2C1,-0.24
Cc1c(C(=O)N2CCOCC2)[nH]c2ccc(OCc3ccccc3)cc12,-1.1
CCOC(=O)N1CCN(C(=O)c2ccc(CS(=O)(=O)c3c(Cl)cccc3Cl)o2)CC1,0.01
O=S(=O)(c1cccc(F)c1)N1CCN(Cc2ccc3c(c2)OCO3)CC1,-0.34
O=C(Nc1nnc(-c2ccc3c(c2)CCCC3)o1)C1COc2ccccc2O1 (stereo unspecified),-0.69
O=C(O)CCc1ccc(-c2ccc(F)cc2)n1Cc1ccco1,-0.76
COc1cccc(C(=O)Nc2cc(=O)n(C)c(=O)n2C)c1,-0.23
O=C(CSc1nnc(CNC(=O)c2c(F)cccc2Cl)o1)Nc1ccc2c(c1)OCCO2,1.9
CC(C(=O)c1ccccc1)n1cnc2ccccc2c1=O (stereo unspecified),-1.2
O=C(CSc1nnc(-c2ccco2)o1)NC1CCCCC1,-0.72
CCC(O)(CCN1CCCCC1)c1ccccc1 (stereo unspecified),1.2
CC(C)(C)NC(=O)COC(=O)Cc1ccc(Cl)cc1,-1.5
O=C(COC(=O)c1cccs1)c1ccc2c(c1)OCCO2,2
O=C(O)C1C2C=CC(O2)C1C(=O)Nc1ccccc1C(F)(F)F (stereo unspecified),0.83
CC(C)CN1C(=O)c2ccc(C(=O)Nc3nccs3)cc2C1=O,1.1
CC(C)NS(=O)(=O)c1cc(C(=O)O)ccc1Cl,-0.58
COc1cc(NS(=O)(=O)c2ccc(N)cc2)ncn1,0.09&-0.53
CCCc1[nH]nc2c1C(c1c(C)nn(-c3ccccc3)c1Cl)C(C#N)=C(N)O2 (stereo unspecified),-0.6
COc1cc(C(=O)CSc2nncn2C)cc(OC)c1OC,-0.32
COC(=O)c1ccc(NC(=O)C23CCC(C)(C(=O)O2)C3(C)C)cc1 (stereo unspecified),1.3
CCN(CC)c1ccc(NC(=O)CN2C(=O)CC(C)(C)S(=O)(=O)c3ccccc32)c(C)c1,0.18
CCOc1ccccc1N(C)C(=O)C1CCN(S(=O)(=O)c2cccc3nonc23)CC1,1.4
O=C(c1ccco1)N1CCN(C(=O)c2cnn3cccnc23)CC1,1.4

# 5 entries picked at random from those above, as already listed:
SMILES,WNV protease inh
CCCc1[nH]nc2c1C(c1c(C)nn(-c3ccccc3)c1Cl)C(C#N)=C(N)O2 (stereo unspecified),-0.6
CCOc1ccccc1N(C)C(=O)C1CCN(S(=O)(=O)c2cccc3nonc23)CC1,1.4
CC(C)(C)NC(=O)COC(=O)Cc1ccc(Cl)cc1,-1.5
O=C(COC(=O)c1cccs1)c1ccc2c(c1)OCCO2,2
O=C(c1ccco1)N1CCN(C(=O)c2cnn3cccnc23)CC1,1.4

# Screening data (PubChem BioAssay)
